From PubChem
VDR inh = Inhibitors of the vitamin D receptor (VDR): qHTS | Potency, µM, for the others: max response, negative = inhibition, usual class: inhibitors | VDR-SRC2-3 peptide fluorescence polarization, 2 h | 400,000 tested, 0.93% active | AID 504847, 2011 | Vitamin D3 receptor (Homo sapiens), P11473; active means well fitted inhibition curve with a large enough effect; inconclusive means small, poorly fitted or top-dose-only effect, or another doubt; inactive means no such curve, though single readings can be large or run the other way; further: series mostly up to about 120 µM
Target sequence (P11473 whole entry, looked up): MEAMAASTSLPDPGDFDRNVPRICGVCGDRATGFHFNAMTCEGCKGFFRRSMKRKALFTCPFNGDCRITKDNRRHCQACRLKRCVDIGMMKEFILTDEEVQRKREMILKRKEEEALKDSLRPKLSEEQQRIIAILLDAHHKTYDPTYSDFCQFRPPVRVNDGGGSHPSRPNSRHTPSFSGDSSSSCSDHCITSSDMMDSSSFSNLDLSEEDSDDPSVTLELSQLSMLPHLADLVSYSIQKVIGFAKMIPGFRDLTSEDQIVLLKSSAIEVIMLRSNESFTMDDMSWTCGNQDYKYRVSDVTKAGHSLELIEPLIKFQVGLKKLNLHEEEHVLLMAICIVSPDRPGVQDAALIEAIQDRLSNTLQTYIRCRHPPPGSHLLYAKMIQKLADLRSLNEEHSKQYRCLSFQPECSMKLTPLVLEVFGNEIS
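Fluorescence polarization assay measuring small-molecule disruption of VDR binding to the coregulator peptide SRC2-3. Compounds were pin-transferred (23 nl) into the reagent mix and incubated 2 h at room temperature before reading.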
* marks the source's active call; other numbers are inactive results; & = joins results of further samples. On the % scale 0 is the no-effect control and ±100 the full control effect; potency means the concentration at half of the fitted maximal effect. Some of the compounds tested; rates above refer to the full screens.

Screening COc1ccc(C(=O)COC(=O)CCN=C2NS(=O)(=O)c3ccccc32)c(OC)c1 returned VDR inh -16%.
CCc1nnc(NC(=O)c2c(O)c3c([nH]c2=O)CCCC3)s1 was read as VDR inh 6%.
`O=C(NCCc1cccs1)C1CC(c2cccc(F)c2)=NO1` (centres undefined) gave VDR inh -13%.
Screening CC(C)N(CC(=O)Nc1ccc(Cl)cc1C(F)(F)F)C(=O)CCl returned VDR inh -7%.
`CCN(CC(=O)Nc1ccc(NC(C)=O)cc1)C(=O)c1oc2ccccc2c1C` gave VDR inh 3%.
O=C1CC(C(=O)N(c2cccc(F)c2)C(C(=O)NC2CCCC2)c2ccccn2)CS1 (centres undefined) was read as VDR inh 14%.
For CCOc1ccc(NS(=O)(=O)c2cc(OCC(N)=O)c(C)cc2Cl)cc1 the results were VDR inh -1%.
Screening O=C(O)C1CCN(S(=O)(=O)c2ccc(Oc3ccccc3)cc2)CC1 returned VDR inh -7%.
CC1=C(C(=O)Nc2ccccc2)C(c2ccncc2)n2nc(SCc3ccccc3F)nc2N1 (centres undefined) was read as VDR inh -24%.
Nc1ncnc2c1ncn2[C@@H]1O[C@H](COP(=O)(O)OP(=O)(O)O)[C@@H](O)[C@H]1O was read as VDR inh 5%&0%.
Cc1ccc(N2CC(NC(=O)c3cc4ccccc4o3)CC2=O)cc1C (centres undefined) was read as VDR inh -7%.
Screening O=C(CSc1nnc(CNC(=O)c2ccc(F)cc2)o1)NCCc1ccccc1 returned VDR inh -2%.
`COc1ccc(C2=CC3=C(Br)C(=O)C(C)(OC(=O)c4cccs4)C(=O)C3=CO2)cc1` (centres undefined) gave VDR inh -28%&-22%.
For O=C(/C=C/c1ccc([N+](=O)[O-])cc1)NCCc1ccc(F)cc1 the results were VDR inh 2%.
`CC(=O)n1cc(/C=N/NC(=O)c2ccccc2O)c2ccccc21` gave VDR inh 4%.
O=c1c2cc3c(cc2nc2sc(Nc4ccccc4)nn12)OCO3 was read as VDR inh 8%.
CCO[C@@H]1OC(C(=O)N2CCCCCCC2)=C[C@H](c2csc3ccccc23)[C@H]1CCCO was read as VDR inh -2%.
`O=C1COc2ccc(NC(=O)N3CCN(c4ccc(F)cc4)CC3)cc2N1` gave VDR inh -10%.
Screening COc1ccc(CCNC(=O)c2c3c(nc4ccccc24)C(=O)N(C2CCCCC2)C3)cc1OC returned VDR inh 3%.
Screening CCn1cc(S(=O)(=O)NCc2ccc3c(c2)OCO3)cn1 returned VDR inh 13%.
Screening O=c1[nH]c(=O)n(C2CC(O)C(CO)O2)cc1I (centres undefined) returned VDR inh 3%.
CCc1cc2c(=O)c(-c3nc4ccccc4n3C)coc2c(CN2CCN(C)CC2)c1O was read as VDR inh -1%.
Screening Fc1ccc2[nH]c3c(NCCN4CCOCC4)ncnc3c2c1 returned VDR inh -5%.
For CCN(CC)S(=O)(=O)c1ccc(-c2cn3cc(Cl)ccc3n2)cc1 the results were VDR inh -21%.
For Cc1ccc(F)cc1NC(=O)N1CCN(c2ccnc3cc(Cl)ccc23)CC1 the results were VDR inh -1%.
`Cc1ccccc1OCc1nc2c3cnn(-c4cccc(F)c4)c3ncn2n1` gave VDR inh 3%.
`Cc1cccc(OCCn2ccnc2)c1C` gave VDR inh -4%.
CC1CN(C(=O)c2ccccc2)C(=Nc2cccc(S(=O)(=O)N(C)C)c2)S1 (centres undefined) was read as VDR inh -8%.
CCOC(=O)CNC(=O)CSc1nc(Cc2ccccc2)nc2ccccc12 was read as VDR inh -13%.
For C=C(C)[C@@H]1CC[C@]2(C(=O)O)CC[C@]3(C)[C@H](CC[C@@H]4[C@@]5(C)CC[C@H](O)C(C)(C)[C@@H]5CC[C@]43C)[C@@H]12 the results were VDR inh 14%.
CCN(CC)CCn1c2c(c(SCC(=O)NCc3ccccc3)nc1=O)CCC2 was read as VDR inh -18%.
`CC(C)c1ccc(/C=C/C(=O)Nn2cnnc2)cc1` gave VDR inh 5%.
Screening Cc1cc(=O)oc2cc(O[C@@H]3O[C@H](CO)[C@H](O)[C@H](O)[C@H]3O)ccc12 returned VDR inh -1%.
For Cc1cc(C)c(NC(=O)c2ccc(CNS(=O)(=O)c3cc(C(F)(F)F)ccc3Cl)cc2)c(C)c1 the results were VDR inh -5%.
Screening Cc1ccc(S(=O)(=O)NCC(=O)N(CC(=O)NCc2ccco2)Cc2ccco2)cc1 returned VDR inh 21%.
Screening CC(=O)Nc1ccc(NC(=O)c2ccccc2-n2cnnn2)cc1 returned VDR inh 13%.
c1ccc2c(c1)COC(CN1CCCCC1)OC2 was read as VDR inh -3%.
O=C(COc1ccc2c(c1)CCC2)NCc1ccc(Cl)cc1 was read as VDR inh -27%.
For CCCCn1c(N)c(N(CC(C)C)C(=O)c2ccco2)c(=O)[nH]c1=O the results were VDR inh -4%.
Screening Cc1cccc2cc(C#N)c(SCCN3CCCCC3)nc12 returned VDR inh -16%.
For CCOC(=O)N1CCC(Nc2c(NCCCN3CCN(c4ccc(OC)cc4)CC3)c(=O)c2=O)CC1 the results were VDR inh -4%.
Screening O=C1Nc2ccccc2C12OC1CCCCC1O2 (centres undefined) returned VDR inh -6%.
For Cc1cccc2nc(-c3cccc(NS(=O)(=O)c4ccccc4)c3)cn12 the results were VDR inh -13%.
For CCS(=O)(=O)N1CCN=C1SCc1ccc(F)cc1 the results were VDR inh 3%.
`Cc1cccc(NC(=O)c2c(C)cc(=O)oc2C)n1` gave VDR inh 5%.
For CCOc1ccc(N(C(=O)CNS(=O)(=O)c2ccccc2)C(CC)C(=O)NCc2ccco2)cc1 (centres undefined) the results were VDR inh -18%.
`N#Cc1ccc(Sc2ccccn2)c([N+](=O)[O-])c1` gave VDR inh -8%.
Screening O=C(CCn1c(=O)c2cccn2c2cccnc21)NCc1ccc(Cl)cc1 returned VDR inh 12%.
Screening Fc1ccc(C2C3=C(Nc4ncnn42)c2ccccc2OC3c2ccncc2)cc1 (centres undefined) returned VDR inh 8%.
Screening CC(NC(=O)C1C2C=CC(C2)C1C(=O)O)c1ccccc1 (centres undefined) returned VDR inh 19%.
`COC(=O)[C@H](CC(C)C)NC(=O)NC1CCCCC1C` (some centres undefined) gave VDR inh 3%.
Cc1cc(-c2ccc(C)c(S(=O)(=O)NCCN3CCC(C)CC3)c2)on1 was read as VDR inh 4%.
Screening OCC[C@@H]1C[C@H](O)[C@@H](O)[C@]2(CCCCO2)O1 returned VDR inh 1%.
`CN(C)CCNC(=O)/C=C/c1cn(-c2ccccc2)nc1-c1cc2ccccc2oc1=O` gave VDR inh -1%.
For Cc1nc2nc(NC(=O)c3ccccc3F)[nH]n2c(=O)c1Cl the results were VDR inh 20%.
`CSCC[C@H](NC(=O)CCNC(C)=O)c1nc2ccccc2[nH]1` gave VDR inh 1%.
Cc1c(C(c2ccccc2Br)c2c(C)n(C)n(-c3ccccc3)c2=O)c(=O)n(-c2ccccc2)n1C was read as VDR inh -16%.
Cc1cccc(Cc2nnc(CCC(=O)N(C)CCc3ccccc3)o2)c1 was read as VDR inh 0%.
`Cc1ccc2c(Cl)c(C)c(N3CCOCC3)nc2n1` gave VDR inh 10%.
For Cc1ccc(N(Cc2ccccc2)C(=O)c2cccc(S(=O)(=O)N3CC(C)OC(C)C3)c2)cc1 (centres undefined) the results were VDR inh -2%.

17 successive records out of the list so far, for reference:
Screening O=C1Nc2ccccc2C12OC1CCCCC1O2 (centres undefined) returned VDR inh -6%.
For Cc1cccc2nc(-c3cccc(NS(=O)(=O)c4ccccc4)c3)cn12 the results were VDR inh -13%.
For CCS(=O)(=O)N1CCN=C1SCc1ccc(F)cc1 the results were VDR inh 3%.
`Cc1cccc(NC(=O)c2c(C)cc(=O)oc2C)n1` gave VDR inh 5%.
For CCOc1ccc(N(C(=O)CNS(=O)(=O)c2ccccc2)C(CC)C(=O)NCc2ccco2)cc1 (centres undefined) the results were VDR inh -18%.
`N#Cc1ccc(Sc2ccccn2)c([N+](=O)[O-])c1` gave VDR inh -8%.
Screening O=C(CCn1c(=O)c2cccn2c2cccnc21)NCc1ccc(Cl)cc1 returned VDR inh 12%.
Screening Fc1ccc(C2C3=C(Nc4ncnn42)c2ccccc2OC3c2ccncc2)cc1 (centres undefined) returned VDR inh 8%.
Screening CC(NC(=O)C1C2C=CC(C2)C1C(=O)O)c1ccccc1 (centres undefined) returned VDR inh 19%.
`COC(=O)[C@H](CC(C)C)NC(=O)NC1CCCCC1C` (some centres undefined) gave VDR inh 3%.
Cc1cc(-c2ccc(C)c(S(=O)(=O)NCCN3CCC(C)CC3)c2)on1 was read as VDR inh 4%.
Screening OCC[C@@H]1C[C@H](O)[C@@H](O)[C@]2(CCCCO2)O1 returned VDR inh 1%.
`CN(C)CCNC(=O)/C=C/c1cn(-c2ccccc2)nc1-c1cc2ccccc2oc1=O` gave VDR inh -1%.
For Cc1nc2nc(NC(=O)c3ccccc3F)[nH]n2c(=O)c1Cl the results were VDR inh 20%.
`CSCC[C@H](NC(=O)CCNC(C)=O)c1nc2ccccc2[nH]1` gave VDR inh 1%.
Cc1c(C(c2ccccc2Br)c2c(C)n(C)n(-c3ccccc3)c2=O)c(=O)n(-c2ccccc2)n1C was read as VDR inh -16%.
Cc1cccc(Cc2nnc(CCC(=O)N(C)CCc3ccccc3)o2)c1 was read as VDR inh 0%.

The list continues.
Screening COc1ccc(C(O)Cc2nc3ccccc3n2C)cc1OC (centres undefined) returned VDR inh 0%.
CC(=O)N[C@@H](Cc1c[nH]c2ccccc12)C(=O)NC1CC1 was read as VDR inh -2%.
For Cc1ccc2nc(-c3ccsc3)c(Nc3ccc(Cl)cc3)n2c1 the results were VDR inh -6%.
Screening CCOC1(C(F)(F)F)NC(=O)N(Cc2ccc(OC)cc2)C1=O (centres undefined) returned VDR inh 11%.
Screening CCCCOc1ccccc1C1CC(=O)NC2=C1C(=O)CCC2 (centres undefined) returned VDR inh -10%.
CN1CCN(NC(=O)c2cn(-c3ccccc3)nc2-c2cccc(Br)c2)CC1 was read as VDR inh 2%.
COc1ccc2cc3cc(C(=O)N4CCN(Cc5ccc6c(c5)OCO6)CC4)oc3nc2c1 was read as VDR inh 2%.
`C=CCCCCCCCCc1nc(SCC(=O)O)n[nH]1` gave VDR inh 3%.
Screening COc1cccc(C2C(C(=O)c3sc(C)nc3C)=C(O)C(=O)N2CCN2CCOCC2)c1 (centres undefined) returned VDR inh -6%.
Cn1c(CS/C(N)=N/N=C/c2ccccc2)c(Br)c(=O)n1-c1ccccc1 was read as VDR inh 50µM*.
`COc1ccc(-c2cc(C(F)(F)F)c3c(N)c(C(=O)NCCSC)sc3n2)cc1` gave VDR inh -21%.
Screening O=C(Nc1ccccc1)C1=C[C@@H](c2ccc(C(F)(F)F)cc2)C[C@@H](OCCCCO)O1 returned VDR inh 8%.
For O=C(Nc1ccc(F)cc1)Nc1ccc(NC(=O)c2ccccc2O)cc1 the results were VDR inh -1%.
Screening Cc1ccccc1CN(C)CC(=O)Nc1c(C)cccc1C(C)C returned VDR inh -3%.
Screening O=C(Nc1nnc(S(=O)(=O)N2CCCC2)s1)c1cccc([N+](=O)[O-])c1 returned VDR inh -8%.
Screening S=C(Nc1ccc(Cl)cc1)Nc1cccc2cnccc12 returned VDR inh inconclusive.
CCCCNS(=O)(=O)c1ccc2nc(-c3cccnc3)cc(C(=O)NCC(OC)OC)c2c1 was read as VDR inh 3%.
N=c1c2c3c(sc2ncn1Cc1ccccc1)CCCC3 was read as VDR inh -10%.
For CCOC(=O)c1oc2nc(C(C)C)c3c(c2c1N)CCC3 the results were VDR inh 2%.
COc1ccc(S(=O)(=O)N2CCC(C(=O)N[C@@H](C)C(=O)N3CCCCCC3)CC2)cc1 was read as VDR inh -16%.
For Cc1ccccc1Nc1cc(C(=O)NCc2ccco2)c2ccccc2n1 the results were VDR inh 2%.
Cc1ccc(C)c(-n2c(SCC(=O)NC(C(=O)O)C(C)C)nnc2-c2cccc(Cl)c2)c1 (centres undefined) was read as VDR inh -22%.
Screening O=C(Nc1cccc(F)c1)c1cccnc1NCCc1ccccc1 returned VDR inh 6%.
For C/C(=C\C(=O)Nc1nccs1)c1ccccc1 the results were VDR inh -9%.
For C1=C(c2ccccc2)Nc2ccccc2N=C1c1ccccc1 the results were VDR inh 8%.
`COC(=O)c1cnc(NNC(=O)c2ccc([N+](=O)[O-])cc2)nc1C(F)(F)F` gave VDR inh 15%.
For CC1(C)Cc2c(c(N3CCOCC3)nc3sc4c(NCCN)ncnc4c23)CO1 the results were VDR inh -14%.
Screening Cc1cc(N2CCN(S(=O)(=O)c3ccc4ccccc4c3)CC2)n2ncnc2n1 returned VDR inh -6%.
`Cc1nc2nc(-c3ccccc3)cc(=O)n2[nH]1` gave VDR inh -2%.
For CC1c2ccsc2CCN1S(=O)(=O)c1cccs1 (centres undefined) the results were VDR inh -8%.
For CC(=O)N1CCC2(CCCN(c3ccncc3)C2)CC1 the results were VDR inh -6%.
O=c1c(-c2cccc(F)c2)nc2cncnc2n1-c1ccccc1 was read as VDR inh -1%.
Screening Cn1c(SCC(=O)Nc2cccc(F)c2)nc2c([nH]c3ccccc32)c1=O returned VDR inh 2%.
For Cc1ccc(NC2=C/C(=N/S(=O)(=O)c3cccs3)c3ccccc3C2=O)cc1 the results were VDR inh -2%.
For O=C(NCCc1nc2ccccc2[nH]1)/C(=C/c1ccco1)NC(=O)c1ccccc1Br the results were VDR inh -12%.
Cc1ccc(CN2CCN(/N=C/c3sccc3C)CC2)c(C)c1 was read as VDR inh -15%.
For CCNc1sc(S(C)(=O)=O)nc1S(=O)(=O)c1ccc(C)cc1 the results were VDR inh 12%.
Screening Cc1ccc(-c2cc(C(F)F)n3ncc(C(=O)Nc4cn(C)nc4C)c3n2)cc1 returned VDR inh 3%.
For COc1ccc(C2C(CN3CCOCC3)C(=O)N2c2ccccc2)cc1 (centres undefined) the results were VDR inh -5%.
For Cc1cc(C)n(-c2nc3cc(Cl)ccc3nc2Nc2ccc(CC(=O)O)cc2)n1 the results were VDR inh -17%.
